# Source: PubChem (several laboratories)
# UUG fidelity – alters start codon recognition fidelity in yeast; S. cerevisiae UUG-firefly luciferase reporter, luminescence/redox ratio; activity score, % at 18.7 µM; AID 602363; 350,000 tested, 0.13% active;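 active = replicate mean at a twofold rise or more, about +100% in these data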;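 also: firefly luciferase made from a UUG start codon reports start codon fidelity; reporter light over untreated wells divided by growth signal over untreated wells; some hits fall short of that in this replicate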
# MT1-MMP act inh – inhibitors of human MT1-MMP activation; P50281; HT1080 RFP-PRO-GFP cells, GFP/RFP ratio fluorescence, overnight; percent of plate control window, DMSO zero; GFP/RFP ratio change, % at 20 µM; 360,000 tested, 0.061% active; AID 651647;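 active = GFP/RFP ratio change of at least 30% with cell ATP level not reduced by more than half and red fluorescence within 50% of control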; also: strong numbers were not always called active
#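 Material – HT1080 RFP-PRO-GFP cells · Control set – DMSO wells and RFP-L50D-GFP cells · Incubation – overnight cell settling, then overnight compound exposure, 37 °C, 5% CO2 · Compound dosing – single-point 20 µM compound, 1% DMSO · Read-out – GFP/RFP fluorescence ratio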
# eIF4H FP inh – inhibitors of RNA binding by human eIF4H. 290,000 tested, 0.94% active. inhibition, % at 35 µM. Q15056. eIF4H fluorescence polarization binding assay;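 active = 50% or more with normal probe brightness, or confirmed in later tests; inconclusive = above 50% with abnormal brightness, or retests that disagree; inactive = below 50% or failed in later tests; about a fifth of its hits are not listed in these tables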;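 also: calls also rest on retests at 20 µM and on dose response follow-up; 0% = protein and probe with vehicle and 100% = probe without protein; strong numbers were not always called active; many hits fall short of the cut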
# PABP polyA inh – PABP-poly(A) binding inhibition; P11940; PABP-poly(A) RNA binding, fluorescence polarization; inhibition, % at 35 µM; 290,000 tested, 1% active;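 active = 50% or more with normal probe brightness, or confirmed in later tests; inconclusive = above 50% with abnormal brightness, or retests that disagree; inactive = below 50% or failed in later tests; about a fifth of its hits are not listed in these tables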;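 also: calls also rest on retests at 20 µM and on dose response follow-up; controls were probe without protein and protein plus probe with vehicle; some compounds called inactive have numbers as strong as hits; many hits fall short of the cut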
# Target sequence (P11940 whole entry, looked up): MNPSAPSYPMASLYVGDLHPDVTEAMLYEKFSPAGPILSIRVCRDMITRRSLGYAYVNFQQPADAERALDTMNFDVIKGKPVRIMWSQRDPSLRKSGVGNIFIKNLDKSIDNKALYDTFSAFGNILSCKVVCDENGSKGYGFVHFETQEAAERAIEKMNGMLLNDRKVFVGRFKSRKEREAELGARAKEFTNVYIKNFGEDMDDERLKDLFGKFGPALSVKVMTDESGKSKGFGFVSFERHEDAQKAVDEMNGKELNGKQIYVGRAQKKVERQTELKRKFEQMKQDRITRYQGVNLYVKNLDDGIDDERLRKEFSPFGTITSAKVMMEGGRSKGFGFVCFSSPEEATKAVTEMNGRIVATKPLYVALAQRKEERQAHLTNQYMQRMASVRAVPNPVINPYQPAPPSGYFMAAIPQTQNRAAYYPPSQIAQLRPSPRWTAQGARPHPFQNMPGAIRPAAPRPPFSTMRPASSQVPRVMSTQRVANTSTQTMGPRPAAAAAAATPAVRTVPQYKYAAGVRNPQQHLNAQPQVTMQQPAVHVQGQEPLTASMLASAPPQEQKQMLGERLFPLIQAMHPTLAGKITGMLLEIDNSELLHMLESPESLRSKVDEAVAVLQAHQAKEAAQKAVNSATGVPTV
# CSC inhib – cancer stem cell inhibition | 300,000 tested, 1.1% active | AID 2717 | cancer stem cell-like cells viability, luminescence | inhibition, % at 7.5 µM;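 active = mean at 75% or more and at least half the replicates too; inconclusive = mean and replicates disagree; tested in HMLE shEcad cells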;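 also: 0% = median of negative and 100% = median of positive control wells; the first replicate is given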
# Rce1 inh – inhibitors of yeast Ras-converting enzyme; Q03530; yeast membranes, quenched prenylated peptide cleavage fluorescence; calls only; 290,000 tested, 0.27% active; AID 2563;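 active = fall in fluorescence gain of 50% or more versus controls, with final raw signal at or below 3038400; inconclusive = same 50% fall but final raw signal above 3038400; inactive = fall in fluorescence gain under 50%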;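 also: plate controls were neutral control wells for no effect and wells lacking membranes for full effect; tested at 10 µM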
# Target sequence (Q03530 whole entry, looked up): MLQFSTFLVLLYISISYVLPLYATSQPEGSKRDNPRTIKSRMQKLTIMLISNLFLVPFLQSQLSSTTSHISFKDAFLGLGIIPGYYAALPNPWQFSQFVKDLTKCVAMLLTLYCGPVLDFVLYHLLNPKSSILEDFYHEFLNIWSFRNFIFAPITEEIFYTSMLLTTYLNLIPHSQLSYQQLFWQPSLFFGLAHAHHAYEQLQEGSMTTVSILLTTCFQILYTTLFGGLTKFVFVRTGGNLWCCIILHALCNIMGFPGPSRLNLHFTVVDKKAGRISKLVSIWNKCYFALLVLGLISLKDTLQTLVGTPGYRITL
# Env fusion inh – blocks HIV Env-driven cell-cell fusion; HeLa-JRFL Env/CEM21 cell fusion, luciferase; inhibition, % at 12.3 µM; 360,000 tested, 1.1% active; AID 651610;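 active = mean replicate inhibition score of at least 50 and every replicate individually at or above 50; inconclusive = only one of the two criteria met; inactive = mean below 50 and not all replicates reaching 50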;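 also: 0% = plate neutral controls and 100% = maraviroc near 300 nM; one replicate is shown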
# eIF4H FP inh retest – also measured in eIF4H FP inh; calls as there; inhibition, %; compound at 20 µM; confirmation average;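 mean of two retest wells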
# PABP polyA inh retest – also measured in PABP polyA inh; calls as there; inhibition, %; compound at 20 µM; confirmation repeats;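 mean of two retest wells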
# MT1-MMP act inh RFP – also measured in MT1-MMP act inh; calls as there; RFP signal change, %; measured here: RFP expression control read;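 0 = vehicle wells; hits needed this value within 50% of zero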
# Numbers without * were called inactive; i = inactive; ? = inconclusive; nt = no result given.
SMILES,UUG fidelity,MT1-MMP act inh,MT1-MMP act inh RFP,eIF4H FP inh,PABP polyA inh,CSC inhib,Rce1 inh,Env fusion inh,others
COc1ccccc1C(=O)C1CCCN(C(=O)c2cc(C(C)C)no2)C1 (stereo not given),-9,0,0,-5,10,6,i,-4,
CC(C)Cn1c(N)c(C(=O)COC(=O)/C=C/c2ccccc2)c(=O)n(C)c1=O,3,6,-29,nt,nt,-10,i,nt,
C=CCn1c(=N)n(CC(O)COc2ccc(OC)cc2)c2ccccc21 (stereo not given),-14,0,-1,2,-4,-3,i,-7,
CN(C)N(Cc1ccccc1)C(=O)C(O)(c1ccccc1)c1ccccc1,-10,-2,-3,50,3,-10,i,14,eIF4H FP inh retest=2;PABP polyA inh retest=4
CCN(CC)CCNC(=O)c1ccc(NC(=O)c2cn(-c3ccccc3)nc2-c2cccs2)cc1,nt,-2,-8,-10,4,33,i,-40,
COC(=O)C1=CN(CC2CCCO2)C=C(C(=O)OC)C1c1ccsc1 (stereo not given),5,4,0,5,-3,-9,?,-162,
COc1cccc(-c2sc3ccc(OC)cc3c2-c2ccc(C(N)=O)cc2)c1,-16,0,-1,nt,nt,-16,nt,4,
Cc1ccc2nc(NC(=O)c3cc(-c4ccco4)nc4ccccc34)sc2c1,nt,-5,-6,20,4,27,i,18,
COC(=O)c1ccc(C(=O)OC)c(NC(=O)Oc2ccccc2)c1,-36,0,4,-5,3,nt,i,-7,
O=C(NC1CCCCCC1)C1CCN(S(=O)(=O)c2ccccc2)CC1,-7,-1,-9,-12,-2,1,i,-51,
CC(C)(C)c1ccc(C(=O)NCC2CCCN2S(=O)(=O)c2ccccc2)cc1 (stereo not given),17,-4,-18,nt,nt,31,i,3,
O=C(Cc1ccc(Cl)cc1Cl)NCC1(N2CCOCC2)CCCCC1,nt,-3,3,4,-2,-4,i,5,
C/C(=N\NC(=O)c1cccs1)c1ccc(C(=O)O)s1,-17,-1,2,5,2,-9,i,-33,
O=C(O)c1cccc(-n2nnnc2SCc2ccccn2)c1,3,5,6,-2,7,4,i,-6,
Clc1cccc(Oc2cnns2)c1Cl,-16,3,3,-2,-1,-4,i,nt,
COc1ccc(O)c(C(=O)c2cnc3c(c2)c(C)nn3CCO)c1,-10,2,2,-7,1,2,i,17,
COCCNC(=O)/C(C#N)=C/c1c(N2CCCCCC2)nc2ccccn2c1=O,-11,4,1,-5,-4,13,i,-17,
COc1cc(C)c(S(=O)(=O)NOCc2ccc([N+](=O)[O-])cc2)c(C)c1C,-5,5,-2,-1,-6,6,i,0,
O=C(N1CCOCC1)n1cnc2ccccc21,-9,-3,-4,-16,-16,-10,i,nt,
CCCCCC(=O)C(=O)c1ccc(O)cc1O,-22,-6,-3,1,7,6,i,10,
CCCCC(=O)Nc1ccc(Cl)cc1F,-6,-1,0,nt,nt,nt,nt,-5,
CC(=O)Nc1ccc(NS(=O)(=O)c2ccc(Cl)c(C(=O)O)c2)cc1,-4,-2,3,9,-8,-8,i,nt,
CCN(CC)CCCN(Cc1cc2cc3c(cc2[nH]c1=O)OCO3)C(=S)Nc1ccc(OC)cc1,-12,-12,-5,1,-9,-10,i,-7,
CCOc1cccc(C(=O)N2CCCN(C)CC2)c1,-7,1,2,-4,-3,7,i,12,
Clc1ccc(Cl)c(-c2nn3c(COc4ccccc4)nnc3s2)c1,-21,-3,-1,0,-1,-14,i,-7,
Cc1ccccc1Cc1c(C)nc2c(C(=O)NCc3ccco3)cnn2c1C,-19,-2,-7,8,9,0,i,nt,
COC(=O)c1ccc(Cn2nc(-c3ccccc3)ccc2=O)cc1,-12,4,3,-6,10,-8,i,1,
Cc1cc2c3c(c1)C1(SCC(=O)N1c1ccc(F)cc1)C(=O)N3C(C)(C)CC2C (stereo not given),-16,-7,-12,-2,-2,7,i,69*,
O=S(=O)(c1ccc(F)cc1)N1CCN(CCc2ccccc2)CC1,-7,-1,-3,0,4,-8,i,-85,
O=C(COC(=O)C(Cc1ccccc1)NC(=O)c1cccs1)NCc1ccccc1 (stereo not given),-18,-2,1,nt,nt,13,nt,-3,
COc1ccc(OC)c(-n2cnc3cc(C(=O)O)ccc32)c1,-1,2,1,-6,13,-8,i,nt,
CCOC(=O)CNC(=O)C1c2ccccc2C(=O)N(c2ccc(OC)cc2)C1c1ccc(OC)cc1 (stereo not given),-17,-1,-2,-6,-7,-11,i,18,
Cc1ccc(C)c(NC(=O)Cn2ccn(-c3ccc4c(c3)OCO4)c(=O)c2=O)c1,4,-1,4,nt,nt,-11,i,2,
Cc1ccc2[nH]c(=O)c(CN(CCc3ccccc3)C(=O)N3CCOCC3)cc2c1,-9,0,4,3,0,-3,i,-58,
CCCCn1c(N)c(N(CCOC)C(=O)CSc2n[nH]c(-c3ccc(OC)cc3)n2)c(=O)[nH]c1=O,-2,1,2,-12,2,-5,i,-13,
COc1ccc(OC)c(NC(=O)CCC(=O)Nc2nnc(C(C)C)s2)c1,-9,3,8,nt,nt,6,i,-7,

# In the list so far, these contain an aryl thioether with sulfur outside any ring.
SMILES,UUG fidelity,MT1-MMP act inh,MT1-MMP act inh RFP,eIF4H FP inh,PABP polyA inh,CSC inhib,Rce1 inh,Env fusion inh,others
O=C(O)c1cccc(-n2nnnc2SCc2ccccn2)c1,3,5,6,-2,7,4,i,-6,
CCCCn1c(N)c(N(CCOC)C(=O)CSc2n[nH]c(-c3ccc(OC)cc3)n2)c(=O)[nH]c1=O,-2,1,2,-12,2,-5,i,-13,

# The main list resumes, starting 2 compounds before the break.
SMILES,UUG fidelity,MT1-MMP act inh,MT1-MMP act inh RFP,eIF4H FP inh,PABP polyA inh,CSC inhib,Rce1 inh,Env fusion inh,others
CCCCn1c(N)c(N(CCOC)C(=O)CSc2n[nH]c(-c3ccc(OC)cc3)n2)c(=O)[nH]c1=O,-2,1,2,-12,2,-5,i,-13,
COc1ccc(OC)c(NC(=O)CCC(=O)Nc2nnc(C(C)C)s2)c1,-9,3,8,nt,nt,6,i,-7,
O=S(=O)(NCCO)c1ccc2c(c1)Cc1cc(S(=O)(=O)NCCO)ccc1-2,-17,0,1,-6,4,-11,i,7,
COc1cc(C(=O)Nc2cc3c(cc2N2CCCCC2)n(C)c(=O)n3C)cc(OC)c1OC,-7,25,-7,0,4,-4,i,22,
COc1cccc2sc(N(C)c3ccccc3)nc12,-37,-5,0,4,-11,-9,i,-250,
Cc1c(Cl)c([N+](=O)[O-])nn1Cc1ccc(C(=O)N/N=C\c2ccccn2)o1,-8,2,3,10,0,6,nt,-14,
Cc1ccc(Nc2ncnc3c2cnn3C)cc1,-8,-5,-5,-12,4,-5,i,-8,
O=S(=O)(c1ccc2ccccc2c1)N1CCN(C2Cc3ccccc3C2)CC1,nt,6,-1,-1,-11,0,i,-13,
Cc1oc(-c2cccs2)nc1CSCC(=O)NC1CC1,nt,-3,-5,-6,0,-2,i,1,
CCCCN(C)C(=O)c1ccc(Nc2nc(C(N)CCc3ccccc3)cs2)nc1 (stereo not given),4,3,-2,nt,nt,nt,nt,15,
CSc1ccccc1C(=O)NCC(c1ccco1)N1CCCCC1 (stereo not given),nt,-3,1,9,98,4,i,-1,eIF4H FP inh retest=-6;PABP polyA inh retest=2
S=C(NCC(c1cccnc1)N1CCOCC1)NC1CCCCC1 (stereo not given),-26,0,5,-8,-12,1,i,13,
Cc1cc(C(=O)Cn2ncc(Cl)c(Cl)c2=O)c(C)n1CC(F)(F)F,nt,-8,-4,28,3,nt,i,-24,
Cc1cc(C)cc(NC(=O)c2cc(S(=O)(=O)NCc3ccco3)ccc2F)c1,nt,0,2,-9,-7,-13,i,-4,
O=C(OCc1ccc([N+](=O)[O-])cc1)C1CC(=O)N(Cc2ccccc2)C1 (stereo not given),-23,2,7,nt,nt,-3,nt,6,
COc1ccc(Cc2nc(-c3ccc(Br)cc3)no2)cc1,-16,-1,-3,-10,-4,nt,i,nt,
COc1cc(C(C2=C(O)CC(C)(C)CC2=O)C2C(=O)CC(C)(C)CC2=O)cc(OC)c1OC (stereo not given),nt,4,6,9,0,-2,i,-4,
CN(C(=O)c1cccc(NC(=O)Cc2cccc([N+](=O)[O-])c2)c1)C1CCCC1,-4,5,-22,nt,nt,nt,nt,10,
COc1ccc(S(=O)(=O)n2c([N+](=O)[O-])cnc2C)c(C)c1C,-6,-2,-2,-7,1,-8,i,-1,
O=C(CSc1nncn1-c1ccccc1)NC1CCCc2ccccc21 (stereo not given),nt,-3,-2,-6,-10,-19,i,26,
Cc1ccc(-c2nc(C(Cl)Cl)c3ccccc3n2)cc1,-14,-28,-21,5,12,132*,i,0,
O=C(O)CCC(=O)NCc1ccc(F)cc1,-20,2,7,-10,-7,-1,i,8,
CCCN(CC(=O)Nc1ccccc1C)C(=O)CCCc1c[nH]c2ccccc12,9,-4,-3,nt,nt,1,nt,nt,
CCN(CC)S(=O)(=O)c1cccc(C(=O)NC(Cc2c[nH]c3ccccc23)c2nnc3n2CCCCC3)c1 (stereo not given),-18,-8,1,1,-5,9,i,-31,
O=S(=O)([N-]c1nc2ccccc2nc1-[n+]1ccc(Cc2ccccc2)cc1)c1ccc(Br)s1,nt,-21,-10,?,?,98*,i,6,
CC(/C=N/NC(=O)c1nn(C)c(C)c1Br)=C\c1ccccc1,-4,2,-4,-1,2,-1,i,nt,
CN1CCN(C(=O)Nc2cccc3ccccc23)CC1,0,-4,-1,12,15,0,i,nt,
Cc1cc2c(c(=O)o1)C(CCC1CCCCC1)C(C#N)=C(N)O2 (stereo not given),1,-27,19,65,18,-12,i,2,eIF4H FP inh retest=2;PABP polyA inh retest=49
CN(Cc1ccccc1)C(=O)c1[nH]cnc1C(=O)Nc1ccon1,0,4,4,nt,nt,7,nt,-29,
CC(=O)Nc1sc2c(c1C(c1ccccn1)N1CCCC1)CCCC2 (stereo not given),3,-1,3,68,-1,8,i,17,eIF4H FP inh retest=20;PABP polyA inh retest=8
CSc1ccccc1NC(=O)CN(C)C(=O)Cc1c[nH]c2ccccc12,-1,-3,1,nt,nt,-5,nt,nt,
C/C(=N/OC(=O)c1ccccc1Br)c1ccc(C)cc1,-22,-2,6,-2,10,4,i,-15,
Cc1nn(CCCC(=O)NCc2ccccc2)c(C)c1[N+](=O)[O-],nt,2,3,8,-10,-9,i,nt,
Cn1c(=O)c2c(nc(NCCCN3CCOCC3)n2Cc2ccc(Cl)cc2)n(C)c1=O,-4,-4,3,-4,0,2,i,8,
Cc1cc(NC(=O)CCN2CCC(C)CC2)ccc1Br,-14,0,1,2,60,-10,i,-116,eIF4H FP inh retest=-4;PABP polyA inh retest=13
CCNC(=S)NN(c1ccccc1)c1ccccc1,-13,1,-6,-4,-10,-8,i,nt,
O=C(Nc1ccncc1)C1CC(=O)N(Cc2ccccc2)C1 (stereo not given),-7,4,0,nt,nt,nt,nt,-2,
COc1ccc(C)cc1S(=O)(=O)N1CCC(C(=O)NC2CCCC2)CC1,12,nt,nt,-12,-12,-12,i,16,
Cc1cccnc1NC(=O)/C=C/c1ccc2c(c1)OCO2,-21,-10,1,8,3,2,i,nt,
O=C(Nc1nc(-c2ccccn2)cs1)c1ccc(Cl)s1,-12,-12,-25,5,-5,80*,i,30,
Cc1ccccc1NC(=O)c1ccc(F)c(S(=O)(=O)NCC2CCCO2)c1 (stereo not given),nt,-2,-6,-4,5,-14,i,-9,
Cc1nn(-c2ccccc2)c(Cl)c1C(=O)OCC(=O)NCCc1ccccc1,2,-1,-1,1,16,10,i,nt,
